Assay outcomes: PubChem, National Center for Advancing Translational Sciences (NCATS)
Resorufin autofl = resorufin region autofluorescence; Compound fluorescence, resorufin region 547/598 nm, buffer; stronger effect = higher value; max dye-equivalent concentration, M; 0.04% of 59,000 active; AID 588; active = above 10 nM dye equivalent; inconclusive = 1 to 10 nM; inactive = 1 nM or less; a few of its hits are not listed in these tables; also: highest value over a series up to 38 µM
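Read-out: intrinsic compound fluorescence at ex 547/em 598 nm after 15 min at RT in pH 8.0 Tris (100 mM). Values expressed as resorufin-equivalent concentration from per-plate standard series.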
A488 autofl = A488 region autofluorescence; compound autofluorescence, A488 spectral region, dye equivalency; stronger effect = higher value; max dye equivalency, M; 0.1% of 59,000 active; AID 591; active = above 10 nM dye equivalent; inconclusive = 1 to 10 nM; inactive = 1 nM or less; about half of its hits are not listed in these tables;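 also: highest value over a series up to 38 µM; compound alone in buffer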
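Readout is A488 dye-equivalent concentration, calibrated by a per-plate six-point Alexa 488 series. Compounds in 100 mM Tris buffer pH 8.0 were incubated 15 min at room temperature. Plates were imaged using 480 nm excitation/540 nm emission filters.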
AID923 = qHTS Assay for Allosteric/Competitive Inhibitors of Caspase-1: Spectroscopic Profiling in AFC Spectral Region | compound fluorescence, AFC spectral region (405/520 nm); almost no hit is shown here | Potency, µM (highest dose often 57.5 µM), without a hit: top-dose fluorescence increase, most hits filed as activators | 1.1% of 75,000 active | AID 923, 2007; active = well fitted activation curve with a large enough effect; inconclusive = small, poorly fitted or top-dose-only effect;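 also: potency is read from the fitted curve at half-maximal effect; 0% is about no effect; scaled to a free AFC standard on each plate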
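Baseline compound fluorescence (AFC region, 405 nm ex/520 nm em) taken from the intercept of kinetic reads with 50 nM caspase-1 and 5 uM Ac-WEHD-AFC; normalized to an on-plate AFC standard curve; compounds titrated up to 57 uM.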
A647 fluor = compound autofluorescence in A647 spectral region; Compound fluorescence, A647 channel (570/671 nm), Tris buffer; max dye-equivalent concentration, M; 59,000 tested, under 10 active; active means above 1 µM dye equivalent; inconclusive means 0.1 to 1 µM; inactive means 0.1 µM or less;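 also: values scaled relative to a standard on each plate; highest value over a series up to 38 µM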
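Spectral profiling of library compounds in pH 8.0 Tris: 15 min room-temperature incubation, single ex/em pair (570/671 nm), response normalized to Alexa 647 equivalents.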
TSHR ag = agonists of human thyroid stimulating hormone receptor | 0.48% of 73,000 active | HEK293-CNG-TSHR cells (CNG channel as cAMP sensor), membrane potential dye, cAMP | Potency, µM (series often up to 57.1 µM), for the others: at the top dose activation, usual class: activators; active = well fitted activation curve of enough size with the parental cells flat; inconclusive = any curve in the parental cells; inactive = parental cells flat and receptor cells flat or falling; also: potency is read from the fitted curve at half-maximal effect; % of control where 0% means no effect; weak receptor curves with flat parental cells got no call and are not listed
Target sequence (P16473 whole entry, looked up): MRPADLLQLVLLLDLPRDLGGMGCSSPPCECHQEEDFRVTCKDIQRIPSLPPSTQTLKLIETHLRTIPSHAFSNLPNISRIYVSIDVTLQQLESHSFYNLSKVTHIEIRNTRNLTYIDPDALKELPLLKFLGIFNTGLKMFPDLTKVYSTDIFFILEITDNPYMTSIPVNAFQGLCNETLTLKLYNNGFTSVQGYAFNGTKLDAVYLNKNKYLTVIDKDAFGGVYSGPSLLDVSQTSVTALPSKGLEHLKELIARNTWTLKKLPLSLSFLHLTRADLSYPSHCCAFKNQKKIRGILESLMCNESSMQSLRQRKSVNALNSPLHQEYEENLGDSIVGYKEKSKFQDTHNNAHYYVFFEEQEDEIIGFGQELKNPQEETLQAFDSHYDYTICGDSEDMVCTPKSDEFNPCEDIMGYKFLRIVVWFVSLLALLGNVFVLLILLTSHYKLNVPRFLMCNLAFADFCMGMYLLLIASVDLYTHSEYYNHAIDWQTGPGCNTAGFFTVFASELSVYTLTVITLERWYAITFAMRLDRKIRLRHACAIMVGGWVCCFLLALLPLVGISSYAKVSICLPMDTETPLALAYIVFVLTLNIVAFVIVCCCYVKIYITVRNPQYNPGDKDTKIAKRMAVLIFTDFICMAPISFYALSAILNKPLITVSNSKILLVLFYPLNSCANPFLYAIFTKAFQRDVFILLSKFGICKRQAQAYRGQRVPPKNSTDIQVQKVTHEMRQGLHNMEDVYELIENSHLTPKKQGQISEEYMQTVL
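cAMP rise detected as CNG-channel membrane depolarization by fluorescent dye (emission 590 nm), 30 min after compound, following 60 min dye loading containing 100 uM RO 20-1724 at room temperature. Cells: TSHR/CNG HEK 293, with parental CNG HEK 293 as control.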
Numbers without * were called inactive; i = inactive; ? = inconclusive; · = not tested or not shown; [ ] = another dose, or the depositor's remark.

cpd	structure	Resorufin autofl	A488 autofl	AID923	A647 fluor	TSHR ag
1	Cc1ccn2cc(-c3nonc3C)cc2c1	i	i	4.7%	3.7e-09	-22%
2	CCN(C(=O)COC(=O)c1c(-c2ccccc2)noc1C)C1CCS(=O)(=O)C1 (centres undefined)	i	i	0.0%	1.7e-08	-2%
3	Oc1ccc2[nH]cnc2c1CN1CCCCC1	i	i	1.2%	3.1e-08	4%
4	Cc1cc(NS(=O)(=O)c2ccc(NC(=O)c3cnc4scc(C)n4c3=O)cc2)nc(C)n1	·	·	-1.1%	·	2%
5	COc1ccccc1C(=O)NCCc1nc2ccccc2n1C	i	i	0.0%	1e-09	11%[11.4 µM]
6	Cc1cc(C)cc(N(C(=O)Cn2nnc3ccccc32)C(C(=O)NCc2ccco2)c2ccncc2)c1 (centres undefined)	i	i	1.5%	2.4e-08	5%
7	NCCCc1c(-c2ccccc2)nc(N)[nH]c1=O	i	i	0.4%[11.5 µM]	6.2e-08	2%[11.4 µM]
8	CCc1cc2c(-c3ccccc3)cc(=O)oc2c(CN2CCOCC2)c1O	i	i	10%	3.1e-08	20%
9	Cc1ccc(S(=O)(=O)c2nc(-c3ccco3)oc2SCC(=O)NCC2CCCO2)cc1 (centres undefined)	i	i	0.5%	2.5e-08	2%[11.4 µM]
10	CCCNC(=O)C(Cc1ccccc1)NS(=O)(=O)c1ccc2c(c1)CCC(=O)N2 (centres undefined)	·	·	-2.2%	·	3%
11	CCOc1ccc(N2C(=O)CC(N3CCOCC3)C2=O)cc1 (centres undefined)	i	i	-0.6%	2.7e-08	1%
12	COc1cc2[nH]c(=O)c(C(=O)NCCCN3CCCCC3)c(O)c2cc1OC	i	i	1.3%	2.5e-08	5%

No new results follow: an excerpt of the list.
cpd	structure	Resorufin autofl	A488 autofl	AID923	A647 fluor	TSHR ag
10	CCCNC(=O)C(Cc1ccccc1)NS(=O)(=O)c1ccc2c(c1)CCC(=O)N2 (centres undefined)	·	·	-2.2%	·	3%
11	CCOc1ccc(N2C(=O)CC(N3CCOCC3)C2=O)cc1 (centres undefined)	i	i	-0.6%	2.7e-08	1%
12	COc1cc2[nH]c(=O)c(C(=O)NCCCN3CCCCC3)c(O)c2cc1OC	i	i	1.3%	2.5e-08	5%

Carrying on.
cpd	structure	Resorufin autofl	A488 autofl	AID923	A647 fluor	TSHR ag
13	O=C(CN1CCOc2ccccc21)NCc1cccs1	i	i	0.4%	1e-09	-3%
14	O=C(CCn1c(=O)oc2ccccc21)NCc1ccc2c(c1)OCO2	·	·	1.0%	·	5%
15	CC(Cc1ccccc1)C(=O)NCc1ccncc1 (centres undefined)	·	·	3.5%	·	6%
16	CC(NC(=O)CN1CCN(Cc2ccc(Cl)cc2)C1=O)c1ccc2c(c1)OCCO2 (centres undefined)	·	·	0.2%	·	14%
17	COc1ccccc1N1CCN(CC(=O)Nc2cc(F)ccc2C)CC1	i	i	0.2%	1e-09	?
18	COC(=O)C/C=C\[C@@H](C)[C@@H](/C=N\O[C@@H](C)c1cn([C@H]2COC[C@H]2O)nn1)OC	·	·	0.6%[11.5 µM]	·	3%[11.4 µM]
19	O=C(/C=N/O)Nc1cccnc1	i	i	-1.8%	5.6e-09	-6%
20	Cc1c(C#N)c2ncnc(N)c2n1-c1ccccc1	i	i	-2.0%	3.5e-08	-2%[11.4 µM]
21	CN(C)c1ccc(N/C=C/C(=O)c2ccc(F)cc2)cc1	i	i	0.3%	1e-09	-11%
22	COc1ccc(CC2C(=O)OC(C)(C)OC2=O)cc1	i	i	-0.9%	1.8e-09	6%
23	Cc1cc(N)c2cc(NC(=O)Nc3ccc4nc(C)cc(N)c4c3)ccc2n1	i	i	7.5%[11.5 µM]	7.9e-09	-1%[11.4 µM]
24	CCOC(=O)c1ccc(N2C(=O)CC(NC3CCN(C(=O)c4ccc(F)cc4)CC3)C2=O)cc1 (centres undefined)	i	i	-1.4%	1.2e-09	1%
25	CCOc1cccc2c1OC1(C)CC2NC(=O)N1c1ccc(OC)cc1 (centres undefined)	i	i	-2.0%	3.6e-08	-2%[11.4 µM]
26	CC(=O)c1sc(NC(=O)C2COc3ccccc3O2)nc1C (centres undefined)	·	·	-3.6%	·	-21%
27	CN1C(=O)NC(c2ccccc2)C2=C1CN(c1cccc(C(F)(F)F)c1)C2=O (centres undefined)	i	i	2.5%	6e-09	-24%
28	COc1ccc(OC)c(CC(NC(C)=O)C(=O)NC2CCN(c3nc(C)cc(C)c3C#N)CC2)c1 (centres undefined)	i	i	0.6%	9.2e-09	-6%
29	O=C(CSCc1cnn(-c2ccccc2)c1-n1cccc1)NCc1ccc2c(c1)OCO2	i	i	-0.6%	1.7e-08	?
30	C[C@@H](c1ccccc1)N1C(=O)[C@H]2[C@H]3[C@H](O)[C@H](O)C/C(=N/OC[C@@H](O)COCc4ccco4)[C@@H]3CC[C@@H]2C1=O	·	·	-1.4%[11.5 µM]	·	-4%[11.4 µM]
31	Cc1oc(-c2ccccc2F)nc1CN1CCC(C(=O)NCCC2=CCCCC2)CC1	i	i	-0.8%	7.8e-09	-9%
32	Cc1nc(NCC2CCCO2)[nH]c(=O)c1CCC(C)C (centres undefined)	i	i	1.6%	9.4e-09	3%
33	CN(C)S(=O)(=O)c1cccc(COC(=O)C2=COCCO2)c1	i	i	0.2%	4e-08	1%
34	Cc1cc(C)cc(NC(=O)CCn2ccnc2C)c1	i	i	0.9%	4.6e-08	3%
35	COc1ccc(C2=NOC(C(=O)NCc3ccco3)C2)cc1OC (centres undefined)	i	i	0.1%	2.7e-08	2%
36	CC(C)CNC(=O)c1noc2c1CCCC2	·	·	1.9%	·	0%
37	CCS(=O)(=O)N1CCN(C(=O)c2cc(OC)cc(OC)c2)CC1	i	i	2.1%	3.1e-09	2%
38	CCc1nnc(NC(=O)Cc2ccc(OCc3c(C)noc3C)cc2)s1	i	i	-0.7%	4.1e-08	3%
39	CC(=O)N1c2c(cc(Br)cc2S(=O)(=O)N2CCN(c3ccccn3)CC2)CC1C (centres undefined)	i	i	-1.5%	1e-09	1%[11.4 µM]
40	Cc1c(Cl)cccc1NC(=O)CSc1nnc(C)n1-c1ccccc1	i	i	-1.0%	1e-09	30%[11.4 µM]
41	O=C(O)c1cc(S(=O)(=O)NCC2CCCO2)ccc1Cl (centres undefined)	i	i	-0.2%	3.2e-08	-5%
42	[Li+]	i	i	-0.1%	2.8e-09	·
43	COCCCNc1nc2c([nH]1)c(=O)[nH]c(=O)n2C	i	i	-1.9%	1.5e-08	-4%
44	O=C1OC(Nc2ccc(Br)cn2)c2ccccc21 (centres undefined)	i	i	·	3.4e-08	·
45	Cc1cccc(C)c1NC(=O)C(c1ccccc1)N1CCC2(CC1)OCCO2 (centres undefined)	i	i	1.0%	1.8e-08	4%
46	O=C(O)c1c(Sc2ccccc2)c2cc(Cl)ccc2n1Cc1ccc(Cl)cc1	·	·	-1.3%	·	?
47	CN(C(=O)C1CCOC1)c1nnc(C2CCOC2)s1 (centres undefined)	i	i	-0.8%	1e-09	0%
48	O=C1C2CC=C(Cl)CC2C(=O)N1c1ncn[nH]1 (centres undefined)	·	·	1.6%	·	-3%
49	CN1CCN(C(=O)C2CCCCC2C(=O)O)CC1 (centres undefined)	·	·	2.6%	·	-10%
50	O=C(CSc1nn(-c2ccc(F)cc2)c(=S)s1)N1CCN(C(=O)c2ccco2)CC1	i	i	-0.7%	2.9e-08	10%
51	Cc1ccc(NC(=O)CSc2n[nH]c(-c3ccncc3)n2)cc1	i	i	0.6%	1e-09	?
52	COCCCNC(=O)CCn1c(=O)c2ccccc2n(CC(=O)Nc2c(C)cccc2C)c1=O	i	i	-0.1%	5.2e-09	1%
53	CCCCSc1nnc([C@@H](NC(=O)OC(C)(C)C)C(C)C)o1	i	i	0.1%	4.9e-09	20%
54	CCN1CCCC1CNC(=O)C(NC(=O)C1CCC(C)CC1)C(C)C (centres undefined)	i	i	0.9%	4.1e-08	8%
55	Cc1ccc(C(C)C)c(OCc2nnc3n2CCCCC3)c1	i	i	-2.1%	1e-09	?
56	CCc1cc2ccccc2nc1SCC(=O)Nc1cc(C)on1	i	i	0.3%	3.3e-08	?
57	CN(c1nc2ccccc2n2c(-c3ccco3)nnc12)S(=O)(=O)c1ccccc1	i	i	-0.2%	1e-09	·
58	C=CCN(CC=C)C(=O)C1CCC(C(=O)N(CC=C)CC=C)CC1 (centres undefined)	i	i	-0.8%	1.3e-08	11%
59	O=C1CCCc2nc(N3CCN(c4ccccc4)CC3)ncc21	i	i	2.0%	1e-09	12%
60	CC(C)NC(=O)N1CC2(CCN(C(=O)c3cc(C(F)(F)F)cc(C(F)(F)F)c3)CC2)C1	i	i	1.0%	2.5e-09	?

Along the list, from the results shown:
A488 autofl for entries 50 to 53, in order: i, i, i, i
AID923 for entries 50 to 53, in order: -0.7%, 0.6%, -0.1%, 0.1%
A647 fluor for entries 50 to 53, in order: 2.9e-08, 1e-09, 5.2e-09, 4.9e-09

More results
cpd	structure	Resorufin autofl	A488 autofl	AID923	A647 fluor	TSHR ag
61	CSc1nc2cc(Cl)ccc2s1	i	i	-0.6%	3.6e-09	-6%
62	CCOC(=O)c1ccc(NC(=O)COC)cc1	i	i	-2.1%	3.5e-09	2%
63	COc1cc(NC(=O)CN2CCN(c3ccccc3F)CC2)cc(OC)c1	i	i	-1.1%	1.9e-08	5%
64	O=c1c2c3c(sc2n(CCN2CCOCC2)c(=O)n1Cc1ccco1)CCCCC3	i	i	-0.5%	5.5e-09	30%
65	CCOC(=O)N1CCN(CCC(=O)Nc2cccc(Br)c2)CC1	i	i	-1.3%	6e-09	3%
66	COCC(=O)N1CCC2(CCCN(C(c3ccccc3)c3ccccc3)C2)CC1	i	i	0.3%	1e-09	-4%
67	O=C(c1ccccc1F)N1CCC(N2CCCCCC2)CC1	i	i	·	9.9e-09	·
68	Cc1c(-c2nc(N)nc(C3CC3)c2C)nc(N)nc1C1CC1	i	i	1.8%[11.5 µM]	1e-09	-5%[11.4 µM]
69	CN(C(=O)c1cccnc1)c1nnc(-c2ccccn2)s1	i	i	1.3%	1e-09	-1%
70	COc1ccccc1-c1cc(C(=O)NCCN2CCOCC2)no1	i	i	0.1%	1e-09	0%[11.4 µM]
71	COCC(=O)N(C)c1nnc(-c2ccccn2)s1	i	i	0.2%	2.7e-08	-1%
72	COc1ccc(OC2C=CC(C#Cc3ccc(C(C)(C)C)cc3)OC2CO)cc1 (centres undefined)	·	·	0.1%[11.5 µM]	·	14%[11.4 µM]

3 compounds drawn at random from the list so far, as already listed:
cpd	structure	Resorufin autofl	A488 autofl	AID923	A647 fluor	TSHR ag
70	COc1ccccc1-c1cc(C(=O)NCCN2CCOCC2)no1	i	i	0.1%	1e-09	0%[11.4 µM]
69	CN(C(=O)c1cccnc1)c1nnc(-c2ccccn2)s1	i	i	1.3%	1e-09	-1%
61	CSc1nc2cc(Cl)ccc2s1	i	i	-0.6%	3.6e-09	-6%

(further entries)
cpd	structure	Resorufin autofl	A488 autofl	AID923	A647 fluor	TSHR ag
73	COCCNS(=O)(=O)c1ccc(OCC(=O)OC)c(Cl)c1	i	i	0.1%	7.3e-09	20µM*
74	Cc1cc(NC(=O)C2CCCCC2C(=O)O)no1 (centres undefined)	i	i	0.8%	2.7e-09	-3%
75	CCOC(=O)CCN1C(=O)[C@H]2[C@H]3[C@H](O)[C@H](O)C/C(=N/OCc4ccccc4)[C@@H]3CC[C@@H]2C1=O	·	·	0.1%[11.5 µM]	·	-5%[11.4 µM]
76	O=C1CSC(=NC2CCCCC2)N1	i	i	-0.3%	4.8e-08	-16%
77	O=C(CCN1C(=O)COc2ccccc21)NCc1cccs1	i	i	-2.0%	2e-09	?
78	CC1(C)O[C@@H]2O[C@H]([C@@H]3COC(C)(C)O3)[C@H](N)[C@H]2O1	i	i	-1.8%[11.5 µM]	1e-09	3%[11.4 µM]
79	COc1cccc(N(CC(=O)O)S(=O)(=O)c2ccccc2)c1	i	i	-0.8%	1.8e-08	0%

Some of the compounds tested; the hit share may differ from the screen's.
